Screening data deposited in PubChem BioAssay by several laboratories.
Autofluor counter – counter-screen for toxin protease inhibitors: compound fluorescence. compound autofluorescence counterscreen, microsphere flow cytometry; stronger effect = higher value. fluorescence intensity (test concentration not listed). 360,000 tested, 3.1% active;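 active means at least 3 SD above the mean of all compounds, about 16000 in these data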;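 further: 100 nL of 1 mM stock went into each well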
PrP UTR inh – inhibition of PrP 5' UTR reporter expression | cell-based PrP 5' UTR mRNA reporter, plate reader | inhibition, % (concentration not given with the values) | 340,000 tested, 0.35% active | AID 488862;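 active means every replicate at 50% or more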;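 further: 0 = median of the neutral control wells; tested in H4 reporter cells; numbers are from one replicate; inactives centre near -14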
ugtP null kill – kills S. aureus RN4220 lacking UgtP. growth inhibition, % (no concentration beside the values). 330,000 tested, 0.54% active. AID 1259309. S. aureus RN4220 ugtP deletion, OD600 growth, 16 h; some inactives read as strong as hits;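 active means z-score under -3 and OD600 up to 0.15 on both plates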;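 further: plate controls were untreated wells for no effect and antibiotic for full effect; wells of about 80 µL received 100 nL stock; the first replicate is given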
BJeLR viability – BJeLR cell viability loss | BJeLR (HRASV12) viability, CellTiter-Glo ATP luminescence, 48 h; reference of the scale not given here | inhibition, % (test concentration not listed) | 300,000 tested, 0.17% active;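 active means replicate mean above 50%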;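 further: 50 nL library stock added to about 25 µL; numbers are from one replicate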
Sa RN4220 lethal – kills Staphylococcus aureus RN4220 | S. aureus RN4220 growth, OD600, 16 h | inhibition, % (no concentration beside the values) | 330,000 tested, 0.33% active | AID 1259311;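 active means z-score of -3 or lower and OD600 up to 0.18 on both plates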;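 further: plate controls were untreated cells for no effect and reference antibiotic for full effect; stock transfer was 100 nL into about 80 µL; one replicate is shown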
Mtb hypoxia rep – Mtb hypoxia fluorescent reporter inhibition; fluorescence inhibition, % (no concentration beside the values); M. tuberculosis hypoxia-regulated fluorescent reporter, fluorescence; AID 1159583; 300,000 tested, 0.1% active;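 active means 35 to 45% if threefold the growth effect, above 45% if 1.5-fold the growth effect; inactive means the rest, general growth blockers included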;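 further: wells of about 50 µL received 100 nL stock; 0% = vehicle wells and 100% = reference inhibitor wells; whole bacteria with a GFP reporter of the hypoxia response; strong numbers were not always called active; many hits fall short of the cut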
Mtb hypoxia rep growth – also measured in Mtb hypoxia rep; calls as there; growth inhibition, %; measured here: M. tuberculosis growth (absorbance);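 0% = vehicle and 100% = reference antibiotic; read after six days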
* = called active by the depositor.

Results for O=C(COc1ccc(Br)cc1CO)Nc1ccc(F)cc1 ?
Autofluor counter: 3141; PrP UTR inh: -25; ugtP null kill: -1; BJeLR viability: -1; Sa RN4220 lethal: -9.8; Mtb hypoxia rep: 6; Mtb hypoxia rep growth: 6

Results for O=C(COC(=O)C1CCN(S(=O)(=O)c2cccs2)CC1)c1ccccc1 ?
Autofluor counter: 4547; PrP UTR inh: -36; ugtP null kill: -1; BJeLR viability: 6; Sa RN4220 lethal: 8.1; Mtb hypoxia rep: 2; Mtb hypoxia rep growth: 13

Results for COc1cc2c(cc1OC)[C@@H]1Cc3ccc(OC)c(OC)c3CN1CC2 ?
Autofluor counter: 4317; PrP UTR inh: -5; ugtP null kill: 13; BJeLR viability: -3; Sa RN4220 lethal: 3.2; Mtb hypoxia rep: 10; Mtb hypoxia rep growth: 0

What do the screens show for `Cc1cccn2c(=O)c3cc(S(=O)(=O)c4ccccc4)c(=N)n(CC4CCCO4)c3nc12` (stereo unspecified)?
ugtP null kill: -1; BJeLR viability: 6; Sa RN4220 lethal: 5.4; Mtb hypoxia rep: 2; Mtb hypoxia rep growth: -5

How did CC(=O)N1CCc2cc(S(=O)(=O)N3c4ccccc4CC3C)ccc21 (stereo unspecified) do in these assays?
Autofluor counter: 11264; PrP UTR inh: -29; ugtP null kill: 2; BJeLR viability: 12; Sa RN4220 lethal: 12; Mtb hypoxia rep: 16; Mtb hypoxia rep growth: 5

Results for COc1cc2c(cc1NC(=O)CSc1nc3cc(Cl)ccc3s1)oc1ccccc12 ?
Autofluor counter: 2348; PrP UTR inh: -6; ugtP null kill: -10; BJeLR viability: 7; Sa RN4220 lethal: 8.0; Mtb hypoxia rep: 7; Mtb hypoxia rep growth: 6

Results for Cc1cccc(Oc2ccc(C(=O)NC3CCSC3=O)cn2)c1C (stereo unspecified) ?
Autofluor counter: 4512; PrP UTR inh: -7; ugtP null kill: -10; BJeLR viability: 15; Sa RN4220 lethal: 3.0

What do the screens show for `CCOC(=O)c1c(O)c(O)c(C(=O)OCC)n1-c1ccccc1`?
Autofluor counter: 5935; PrP UTR inh: -21; ugtP null kill: 16; BJeLR viability: -1; Sa RN4220 lethal: 0.3; Mtb hypoxia rep: -3; Mtb hypoxia rep growth: -5

What do the screens show for `CS(=O)(=O)c1cccc(C(=O)Nc2ccc3c(c2)OCCCO3)c1`?
Autofluor counter: 3483; PrP UTR inh: -46; BJeLR viability: -9

What do the screens show for `CN(C)CCCn1c(SCC(=O)N2CC(=O)Nc3ccccc32)nc2ccccc2c1=O`?
Autofluor counter: 5122; PrP UTR inh: -5; ugtP null kill: 7; BJeLR viability: -17; Sa RN4220 lethal: 13; Mtb hypoxia rep: -12; Mtb hypoxia rep growth: 1

How did COc1ccc(CCNC(=O)C2CCN(c3nn4c(=O)cc(C)nc4s3)CC2)cc1OC do in these assays?
Autofluor counter: 3732; PrP UTR inh: -20; ugtP null kill: 7; BJeLR viability: -2; Sa RN4220 lethal: 4.7; Mtb hypoxia rep: 2; Mtb hypoxia rep growth: 8

How did CCOCCCNC(=O)C1(O)c2ccccc2NC(=O)N1c1ccc(Cl)c(Cl)c1 (stereo unspecified) do in these assays?
Autofluor counter: 3700; PrP UTR inh: -15; ugtP null kill: 4; BJeLR viability: -9; Sa RN4220 lethal: -0.2; Mtb hypoxia rep: 4; Mtb hypoxia rep growth: 0

How did COc1ccc(-n2c(C)nc(=O)c(-c3ccccc3)c2C)cc1 do in these assays?
Autofluor counter: 4752; PrP UTR inh: -24; ugtP null kill: 0; Sa RN4220 lethal: 2.4

What do the screens show for `CSc1nc2ccc(S(=O)(=O)N3CCOCC3)cc2s1`?
Autofluor counter: 8028; PrP UTR inh: -17; ugtP null kill: -1; BJeLR viability: 4; Sa RN4220 lethal: 2.3; Mtb hypoxia rep: 13; Mtb hypoxia rep growth: 8

How did CC[C@@]12C(=O)N(c3cccc(F)c3)C(=O)N1C(c1ccc(Br)cc1)C1C(=O)N(C(C)(C)C)C(=O)C12 (stereo partly specified) do in these assays?
ugtP null kill: -3; Sa RN4220 lethal: 8.7; Mtb hypoxia rep: -6; Mtb hypoxia rep growth: -10

Results for CC(C)C(NC(=O)c1ccccc1NC(=O)c1ccccc1)C(=O)NCCCn1ccnc1 (stereo unspecified) ?
Autofluor counter: 4318; PrP UTR inh: -4; ugtP null kill: 0; BJeLR viability: 11; Sa RN4220 lethal: -1.0; Mtb hypoxia rep: 3; Mtb hypoxia rep growth: 0

How did COc1ccc(C=NNC(=O)c2cccc([N+](=O)[O-])c2)cc1OC(=O)c1ccccc1 do in these assays?
ugtP null kill: -6; Sa RN4220 lethal: 2.8; Mtb hypoxia rep: 7; Mtb hypoxia rep growth: 4

Results for COc1cc(CN2CCCCCC2)cc(OC)c1 ?
Autofluor counter: 3969; PrP UTR inh: -6; ugtP null kill: 10; BJeLR viability: -5; Sa RN4220 lethal: 4.1; Mtb hypoxia rep: -1; Mtb hypoxia rep growth: 2

How did Nc1c(C(=O)N/N=C/c2ccccc2Cl)oc2nc(-c3ccccc3)cc(-c3ccco3)c12 do in these assays?
Autofluor counter: 4983; PrP UTR inh: -13; BJeLR viability: -1

Results for CCN1CCN(Cc2ccc(NC(=O)c3ccc(C)c(NC(=O)c4cccc(-c5cn[nH]c(=O)c5)c4)c3)cc2C(F)(F)F)CC1 ?
Autofluor counter: 3887; PrP UTR inh: 1; BJeLR viability: 5

Results for O=C(c1ccc2oc(CCc3ccccc3)nc2c1)N1CCC(O)CC1 ?
Autofluor counter: 5821; PrP UTR inh: -83; ugtP null kill: 11; BJeLR viability: 4; Sa RN4220 lethal: 1.5; Mtb hypoxia rep: 12; Mtb hypoxia rep growth: 9

What do the screens show for `Cc1ccc(OCC(=O)N/N=C/c2cccc3cccnc23)cc1`?
Autofluor counter: 4082; PrP UTR inh: -17; BJeLR viability: -2

What do the screens show for `CC(=O)N[C@@H](Cc1c[nH]c2ccccc12)C(=O)NC1CCCc2ccccc21` (stereo partly specified)?
Autofluor counter: 3112; PrP UTR inh: -19; ugtP null kill: 3; BJeLR viability: 6; Sa RN4220 lethal: 2.6; Mtb hypoxia rep: 1; Mtb hypoxia rep growth: -3

Results for COc1ccc(C(=O)Nc2ccc3c(c2)CCCN3C(=O)c2cccs2)c(OC)c1 ?
Autofluor counter: 4195; PrP UTR inh: -19; ugtP null kill: -4; BJeLR viability: 3; Sa RN4220 lethal: 6.5; Mtb hypoxia rep: 11; Mtb hypoxia rep growth: 6

What do the screens show for `Cc1ccc(-c2noc(-c3ccccc3C(=O)N3CCCC3)n2)cc1`?
Autofluor counter: 4786; PrP UTR inh: -19; ugtP null kill: 6; BJeLR viability: -2; Sa RN4220 lethal: -1.2; Mtb hypoxia rep: 5; Mtb hypoxia rep growth: 13

Results for COCCC1CCCCN1C(=O)c1cccc(OC2CCN(S(C)(=O)=O)CC2)c1 (stereo unspecified) ?
Autofluor counter: 5570; PrP UTR inh: 1; ugtP null kill: 4; BJeLR viability: 9; Sa RN4220 lethal: 1.6; Mtb hypoxia rep: 13; Mtb hypoxia rep growth: 0

How did C=C1C(=O)OC2C(O)C(C)=CC(=O)C=C(C)CC(OC(=O)C(C)=CC)C12 (stereo unspecified) do in these assays?
ugtP null kill: -4; Sa RN4220 lethal: 8.0

Results for Clc1cc(NCc2cccs2)ccc1N1CCOCC1 ?
Autofluor counter: 3808; PrP UTR inh: -54; ugtP null kill: 23; BJeLR viability: -2; Sa RN4220 lethal: 3.2; Mtb hypoxia rep: 2; Mtb hypoxia rep growth: 3

What do the screens show for `CN(C)c1ccc(/C=N/NC(=O)c2ccccn2)cc1`?
Autofluor counter: 6090; PrP UTR inh: -10; BJeLR viability: 11

What do the screens show for `CC#CCNCc1ccccc1`?
Autofluor counter: 4281; PrP UTR inh: 10; ugtP null kill: -6; BJeLR viability: 4; Sa RN4220 lethal: 1.4; Mtb hypoxia rep: 1; Mtb hypoxia rep growth: 0

How did O=C(CC1NC(=O)NC1=O)Nc1ccccc1 (stereo unspecified) do in these assays?
Autofluor counter: 4262; PrP UTR inh: -16; ugtP null kill: 14; BJeLR viability: -2; Sa RN4220 lethal: 7.4; Mtb hypoxia rep: 9; Mtb hypoxia rep growth: -2

Results for O=C1CN(C(=O)CCN2CCOCC2)C(c2ccccc2)c2cc(Br)ccc2N1 (stereo unspecified) ?
Autofluor counter: 2519; PrP UTR inh: -15; ugtP null kill: 0; BJeLR viability: 0; Sa RN4220 lethal: 6.4; Mtb hypoxia rep: 6; Mtb hypoxia rep growth: 7

How did NS(=O)(=O)c1cc([N+](=O)[O-])ccc1NCc1cccnc1 do in these assays?
Autofluor counter: 4090; PrP UTR inh: -20; ugtP null kill: 4; BJeLR viability: 2; Sa RN4220 lethal: 5.0; Mtb hypoxia rep: 6; Mtb hypoxia rep growth: 11

How did CCOC(=O)N1CCN(c2ccc([N+](=O)[O-])cc2F)CC1C (stereo unspecified) do in these assays?
Autofluor counter: 2389; PrP UTR inh: -4; ugtP null kill: 0; BJeLR viability: -11; Sa RN4220 lethal: 8.2; Mtb hypoxia rep: -2; Mtb hypoxia rep growth: 7

Results for O=C(Cc1cc(=O)oc2cc(O)ccc12)NN=Cc1ccc(N(CCCl)CCCl)cc1 ?
Autofluor counter: 2921; PrP UTR inh: -3; ugtP null kill: -2; Sa RN4220 lethal: 4.1; Mtb hypoxia rep: 5; Mtb hypoxia rep growth: 5

What do the screens show for `O=C(Nc1ncn[nH]1)c1cccc(S(=O)(=O)N2CCOCC2)c1`?
Autofluor counter: 4671; PrP UTR inh: -4; ugtP null kill: -4; BJeLR viability: 7; Sa RN4220 lethal: 2.0; Mtb hypoxia rep: 2; Mtb hypoxia rep growth: 4

How did O=C(Cc1noc2ccccc12)Nc1ccc(Cl)cc1 do in these assays?
Autofluor counter: 8384; PrP UTR inh: -26; ugtP null kill: 0; BJeLR viability: 1; Sa RN4220 lethal: -2.2; Mtb hypoxia rep: -5; Mtb hypoxia rep growth: -6

What do the screens show for `CCCS/C(N)=N/N=C/c1ccccc1O`?
Autofluor counter: 2765; PrP UTR inh: -110; BJeLR viability: 0

Results for O=C(CN1CCN(C/C=C/c2ccccc2)CC1)NCc1ccc(Cl)cc1 ?
Autofluor counter: 4236; PrP UTR inh: -15; ugtP null kill: 5; BJeLR viability: 2; Sa RN4220 lethal: 0.9; Mtb hypoxia rep: 14; Mtb hypoxia rep growth: 22

Ordered by formula weight (rising): part of the list above.
How did NS(=O)(=O)c1cc([N+](=O)[O-])ccc1NCc1cccnc1 do in these assays?
Autofluor counter: 4090; PrP UTR inh: -20; ugtP null kill: 4; BJeLR viability: 2; Sa RN4220 lethal: 5.0; Mtb hypoxia rep: 6; Mtb hypoxia rep growth: 11

Results for O=C(c1ccc2oc(CCc3ccccc3)nc2c1)N1CCC(O)CC1 ?
Autofluor counter: 5821; PrP UTR inh: -83; ugtP null kill: 11; BJeLR viability: 4; Sa RN4220 lethal: 1.5; Mtb hypoxia rep: 12; Mtb hypoxia rep growth: 9

How did CCOCCCNC(=O)C1(O)c2ccccc2NC(=O)N1c1ccc(Cl)c(Cl)c1 (stereo unspecified) do in these assays?
Autofluor counter: 3700; PrP UTR inh: -15; ugtP null kill: 4; BJeLR viability: -9; Sa RN4220 lethal: -0.2; Mtb hypoxia rep: 4; Mtb hypoxia rep growth: 0

What do the screens show for `Cc1cccn2c(=O)c3cc(S(=O)(=O)c4ccccc4)c(=N)n(CC4CCCO4)c3nc12` (stereo unspecified)?
ugtP null kill: -1; BJeLR viability: 6; Sa RN4220 lethal: 5.4; Mtb hypoxia rep: 2; Mtb hypoxia rep growth: -5

What do the screens show for `CN(C)CCCn1c(SCC(=O)N2CC(=O)Nc3ccccc32)nc2ccccc2c1=O`?
Autofluor counter: 5122; PrP UTR inh: -5; ugtP null kill: 7; BJeLR viability: -17; Sa RN4220 lethal: 13; Mtb hypoxia rep: -12; Mtb hypoxia rep growth: 1

Results for O=C1CN(C(=O)CCN2CCOCC2)C(c2ccccc2)c2cc(Br)ccc2N1 (stereo unspecified) ?
Autofluor counter: 2519; PrP UTR inh: -15; ugtP null kill: 0; BJeLR viability: 0; Sa RN4220 lethal: 6.4; Mtb hypoxia rep: 6; Mtb hypoxia rep growth: 7

How did CC[C@@]12C(=O)N(c3cccc(F)c3)C(=O)N1C(c1ccc(Br)cc1)C1C(=O)N(C(C)(C)C)C(=O)C12 (stereo partly specified) do in these assays?
ugtP null kill: -3; Sa RN4220 lethal: 8.7; Mtb hypoxia rep: -6; Mtb hypoxia rep growth: -10
